Screening data as filed in PubChem BioAssay.
T cruzi inh: inhibitors of intracellular T. cruzi growth, primary screen, luminescence, NIH3T3 host cells | T. cruzi beta-gal in NIH3T3, 90 h | inhibition, % (test concentration not listed) | 1.4% of 300,000 active | AID 1885, 2009;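 active = mean inhibition across valid replicates above about 55%, limit read from the data; inconclusive = mean below that limit but half or more replicates reach it; inactive = mean below it, under half of replicates reach it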;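 also: signal also drops with host cell toxicity which is not excluded here; 0% = plate median of DMSO wells and 100% = zero luminescence signal; higher percent means less beta-gal luminescence so fewer parasites; stock transfer was 50 nL into about 50 µL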
Beta apoptosis: inhibitors of cytokine-induced beta cell apoptosis, primary screen, luminescence; INS-1E cytokine-induced death, ATP luminescence, 48 h; percent of positive-control rescue, neutral wells zero; 0.8% of 300,000 active; protection from apoptosis, % (test concentration not listed);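 active = all replicates at 75% or more, or half of them and the mean; inconclusive = half reach 75% but not the mean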;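 also: 0% = cytokine-treated negative control wells and 100% = positive control rescue; higher means more ATP so stronger rescue from cytokine killing; wells of about 40 µL received 100 nL stock; the first replicate is given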
Calb FLC: C. albicans growth inhibition with fluconazole, primary screen, CaCi-2 strain, Alamar Blue fluorescence; C. albicans CaCi-2 (fluconazole-resistant clinical isolate) + fluconazole, 48 h; growth inhibition, % (test concentration not listed); 0.57% of 300,000 active;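 active = most replicates above 75%; inconclusive = exactly half above 75%; inactive = most below 75%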;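 also: all wells also contain fluconazole at 8 µg/ml as a sub-toxic cotreatment; 0% = median of DMSO wells and 100% = median of geldanamycin control wells; wells of about 8 µL received 7.5 nL stock; the first replicate is given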
MLL AF4-AF9 inh: inhibitors of AF4 peptide binding to AF9, primary screen, biochemical, AlphaScreen, biotin-AF4 peptide, FLAG-AF9, single point; 0.47% of 350,000 active; inhibition, % at 10 µM; Protein AF-9 (Homo sapiens), P42568;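 active = every replicate reaching a set inhibition limit, whatever the replicate mean, cut at about 25% in these data; inconclusive = mean inhibition reaches that limit but some replicates miss it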;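 also: 0% = plate neutral control median and 100% = total signal loss; the record names both 10 and 1 µM as test concentration; the first replicate is given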
Target sequence (P42568 whole entry, looked up): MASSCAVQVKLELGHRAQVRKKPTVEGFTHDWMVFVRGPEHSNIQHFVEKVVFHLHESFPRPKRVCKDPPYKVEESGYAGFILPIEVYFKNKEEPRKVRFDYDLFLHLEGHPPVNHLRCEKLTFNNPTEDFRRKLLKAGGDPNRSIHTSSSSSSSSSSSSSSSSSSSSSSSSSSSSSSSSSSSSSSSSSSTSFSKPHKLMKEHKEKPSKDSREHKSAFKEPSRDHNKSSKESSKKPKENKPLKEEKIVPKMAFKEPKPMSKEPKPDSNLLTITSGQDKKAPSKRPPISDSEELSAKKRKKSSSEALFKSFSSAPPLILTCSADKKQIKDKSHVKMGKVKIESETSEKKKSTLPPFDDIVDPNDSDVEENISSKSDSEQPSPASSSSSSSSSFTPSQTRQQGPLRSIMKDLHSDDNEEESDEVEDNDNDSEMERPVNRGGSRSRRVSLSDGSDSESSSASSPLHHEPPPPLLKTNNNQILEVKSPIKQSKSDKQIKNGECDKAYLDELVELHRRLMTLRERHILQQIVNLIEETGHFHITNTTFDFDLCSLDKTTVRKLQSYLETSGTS
RanGTP-Impb inh: inhibitors of RanGTP-importin-beta interaction, primary screen, biochemical, FRET, CFP-Ran, YFP-importin-beta, homogeneous | Ran GTPase (GTP-bound) - importin-beta complex | cell-free CFP-Ran/YFP-importin-beta FRET ratio | inhibition, % (concentration not given with the values) | 1.1% of 300,000 active | AID 2216, 2009;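 active = most replicates above 15%; inconclusive = exactly half above 15%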;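 also: 0% = DMSO wells and 100% = Ran loaded with GDP instead of GTP; wells of about 40 µL received 100 nL stock; the first replicate is given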
Vif A3G: inhibitors of Vif binding to APOBEC3G peptide, primary screen, biochemical, TR-FRET, GST-Vif 1-94, biotin-A3G peptide, dose response retest (AID 1117319); inhibition, %; hits with a dose series show IC50 in µM; 0.57% of 260,000 active; TR-FRET GST-Vif / biotin-A3G peptide binding; higher % means a stronger effect; test concentration not given here; strong numbers were not always called active;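 active = above the screen mean plus three standard deviations and confirmed in dose response; inconclusive = results disagree or hit not tested in dose response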;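 also: Vif residues 1-94 fused to GST binding biotinylated APOBEC3G peptide 110-148; 0% = full assay without inhibitor and 100% = GST in place of GST-Vif; retest series ran down from 100 µM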
A1 inh: caspase 3/7 activation in MEF A1-2A-BIM cells, primary screen, A1 inhibitor project, cell-based, luminescence, HTS. 0.066% of 330,000 active. AID 2462, 2010. Caspase-Glo 3/7 luminescence, 3 h; percent of clofoctol response, vehicle zero. caspase activation, % (no concentration beside the values);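 active = over half of replicate activation scores above 10%, or exactly half above 10 with the replicate mean above 10; inconclusive = replicate mean below 10 yet half the replicates above 10; inactive = over half of replicates below 10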;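 also: wells of about 30 µL received 50 nL stock; many hits fall short of the cut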
Ecoli rRNA inh: reduced GFP signal of wild-type E. coli, primary screen, bacterial rRNA inhibitor project, GFP/RFP fluorescence, OD600, single point; E. coli WT GFP vs humanized-ribosome RFP mutants, 24 h; stronger effect = lower value; DMSO median 0, no signal -100; GFP signal change (wild-type ribosome), % (no concentration beside the values); 1.6% of 350,000 active;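 active = significant combined selectivity score with lowered wild-type GFP, culture density cut under 30%, mutant RFP and density less affected; inactive = any of these conditions unmet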; also: one replicate is shown; some compounds called inactive have numbers as strong as hits
Ecoli rRNA inh OD600: also measured in Ecoli rRNA inh; calls as there; OD600 change, %; measured here: OD600 growth;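 optical density of the mix in the first replicate; 0 = DMSO median and -100 = no signal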
Ecoli rRNA inh RFP: also measured in Ecoli rRNA inh; calls as there; RFP signal change, %; measured here: RFP humanized mutant strains;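 first replicate; 0 = DMSO median and -100 = no signal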
Active calls of the source: *; ? = inconclusive; . = no result given; & = joins results of further samples. These rows are one share of the data; the hit share may differ from the screen's.

SMILES	T cruzi inh	Beta apoptosis	Calb FLC	MLL AF4-AF9 inh	RanGTP-Impb inh	Vif A3G	A1 inh	Ecoli rRNA inh	Ecoli rRNA inh OD600	Ecoli rRNA inh RFP
CCn1nc(CC(=O)Nc2nnc(CC(=O)N3CCCC3)s2)c2ccccc2c1=O	-1	4	-3	.	2.7	0%	1.3	.	.	.
CC12CCC(=O)N1C(C(=O)Nc1cc(C(F)(F)F)ccc1N1CCCCC1)CS2 (stereo not given)	34	2	0	-11	0.6	-3%	-0.4	-11	-36	-1.2
COc1ccc(NC2CCCN(C(=O)c3cc4ncccn4n3)C2)cc1 (stereo not given)	7	2	1	1.6	0.1	1%	0.1	7	13	0.0
CC1CCCC(C)N1C(=O)CSc1ncccn1 (stereo not given)	-7	-3	-3	-2.7	-0.2	.	0.0	8	6	-1.9
COc1ccc(-n2c(SCC(=O)NCc3cccs3)nnc2-c2ccoc2C)cc1	-24	-4	-3	.	-0.4	1%	1.5	.	.	.
CC1CCCCC1NC(=O)CSc1nc2ccccc2c(=O)n1Cc1ccco1 (stereo not given)	-3	-6	15	-3.9	?	-4%	-0.5	-8	0	-7.0
Clc1ccccc1N1CCN(Cc2ccc(Br)o2)CC1	10	0	-29	-2.1	0.8	.	0.4	-35*	15*	-3.8*
COCc1nnc(NC(=O)CSCc2ccccc2)s1	-9	-2	1	.	-3.8	-3%	0.2	.	.	.
CC(C)c1ccc(NC(=O)C(=O)c2cn(CC(=O)N3CCCCC3)c3ccccc23)cc1	-11	1	12	13	-3.3	.	0.1	4	12	9.6
COc1cccc(NC(=O)Cc2nnc(SCC(=O)NC3CCCC3)n2C)c1	-3	-1	3	-1.3	?	.	-0.1	-14	-14	-0.4
CC(C)(C)CC(C)(C)N1CNC(=S)NC1	-8	-5	7	0.3	?	0%	-0.3	-5	0	-1.6
O=C(O)CN1CCc2ccccc2C1	-11	-1	-6	-5.2	1.7	.	0.3	8	19	-0.1
Cc1ccc(C(=O)OCC(=O)N2CCCC2)cc1	5	-5	-11	-2.5	-0.2	.	-0.1	-12	-19	1.8
Cc1ccc(NC(=O)COC(=O)CCC2CCCC2)c(Br)c1	.	-6	.	-0.4	.	.	-0.2	0	-1	-2.4
O=C(/C=C/c1c(F)cccc1Cl)Nc1ccc(S(=O)(=O)Nc2ncccn2)cc1	-10	-4	-2	0.4	4.3	-5%	0.5	-1	5	-3.7
Cc1cccc(NC(=O)Nc2ccc(Cl)cc2)n1	-7	-2	-3	-0.4	1.9	7%	0.8	27	11	4.0
COc1ccc(CCC(C)NCc2ccc(Cl)c(Cl)c2)cc1 (stereo not given)	7	-14	9	1.3	-1.3	.	0.5	-54	-77	-29
O=C1CCCN1CCCNS(=O)(=O)c1ccc(Br)cc1	-6	-5	2	-0.3	0.4	.	0.2	-7	9	-1.3
O=C(Nc1cccc2ncccc12)c1ccc(Cl)cc1	2	0	8	-7.6	?	.	0.1	-1	9	18
CC1=Nc2ccccc2N=C(N)C1c1ccccc1 (stereo not given)	-8	3	2	1.9	5.3	1%	0.0	9	11	3.3
COc1cccc(NC(=O)C(Sc2nnc(Nc3ccccc3C)s2)c2ccccc2)c1 (stereo not given)	-6	-5	-5	3.1	2.8	15%	-0.1	.	.	.
CN(CC(=O)Nc1cccc(F)c1)C(=O)CSc1ccccc1F	-2	-7	0	-2.8	1.9	5%	0.0	-2	-3	2.6
Cn1c(=O)cc(OCC(=O)NCCCN2CCN(c3cccc(Cl)c3)CC2)c2ccccc21	13	5	-14	2.2	3.0	2%&0%	-0.8	-6	-7	3.0
O=C(O)C1CCC(Cn2c(SCc3cc(=O)n4ccccc4n3)nc3ccsc3c2=O)CC1 (stereo not given)	-19	0	-18	1.0	-4.9	-6%	-0.8	-9	-26	7.6
COc1ccc(-c2csc(NC(=S)NC(=O)c3cccs3)n2)cc1OC	26	.	-3	-2.1	8.1	-6%	.	-14	-7	-0.5

The last two records of the section above come first, to join the parts.
SMILES	T cruzi inh	Beta apoptosis	Calb FLC	MLL AF4-AF9 inh	RanGTP-Impb inh	Vif A3G	A1 inh	Ecoli rRNA inh	Ecoli rRNA inh OD600	Ecoli rRNA inh RFP
O=C(O)C1CCC(Cn2c(SCc3cc(=O)n4ccccc4n3)nc3ccsc3c2=O)CC1 (stereo not given)	-19	0	-18	1.0	-4.9	-6%	-0.8	-9	-26	7.6
COc1ccc(-c2csc(NC(=S)NC(=O)c3cccs3)n2)cc1OC	26	.	-3	-2.1	8.1	-6%	.	-14	-7	-0.5
CCc1ccc(NC(=O)C2C3/C=C\CCCCC32)cc1 (stereo not given)	25	2	6	.	0.1	0%	-0.1	.	.	.
COc1ccc(CCNS(=O)(=O)c2cc3c4c(c2)C(C)C(=O)N4CCC3)cc1OC (stereo not given)	-1	-5	-4	0.1	-0.5	-5%	1.4	1	5	-3.6
Cc1ccc(/C=C/C(=O)OC(C)C(=O)Nc2ncc(Cl)cc2Cl)o1 (stereo not given)	-3	-4	-9	.	3.0	3%	0.6	.	.	.
CC(=O)c1ccc(N2CCN(C(=O)CCC(=O)c3cccs3)CC2)cc1	8	-13	-4	-1.2	-3.8	-6%	2.3	-11	-13	-4.4
CN(Cc1cccc(F)c1)C(=O)c1ccc2c(=O)n3c(nc2c1)CCC3	-18	.	-2	-4.7	-3.4	.	0.0	4	5	-1.4
O=c1cc(-c2ccncc2)oc2ccccc12	.	-5	5	.	.	0%	-0.1	.	.	.
CCOc1cc(OCC)cc(C(=O)NCc2ccco2)c1	-1	-4	-4	-6.0	-5.3	.	1.0	6	7	6.2
O=C(CNC(=O)c1ccccc1F)NCCN1C(=O)S/C(=C\c2ccccc2Cl)C1=O	3	3	-1	-0.3	2.2	.	-0.5	0	6	1.2
Cc1ccc(CNC(=O)C2CC3Cn4c(nc5ccccc54)C3N2C)o1 (stereo not given)	-6	.	11	-0.4	3.8	.	0.6	14	12	4.7
COc1ccc(Sc2nc(-c3ccccc3)ncc2OC)cc1	6	-3	-16	6.5	1.1	.	-0.4	7	10	-0.3
COc1ccc(C(=O)NCCN2CCOCC2)cc1[N+](=O)[O-]	-9	1	-3	-0.9	?	.	0.3	17	22	18
O=C(NCC(O)c1ccccc1)c1ccc(Cl)c(S(=O)(=O)N2CCCCC2)c1 (stereo not given)	2	.	8	0.7	-1.9	-6%	-0.1	-2	-18	3.3
CCN(C1=NS(=O)(=O)c2ccccc21)N(CC)S(=O)(=O)c1ccc(C)cc1	18	5	26	7.3	?	1%	0.0	-10	-5	8.7
O=C(CCS(=O)(=O)Cc1cccc(Cl)c1)NCCc1ccccc1	-5	-4	-1	1.8	2.2	-6%	-0.3	-1	-3	0.7
CCOC(=O)C[n+]1c(C)ccc2c1CCC2	7	-8	-5	.	0.0	18%	0.4	.	.	.
Cc1ccc(Cl)cc1NC(=O)C(=O)N1CCCCC1	-5	0	-20	-3.7	-1.2	12%	0.1	6	3	0.0
Cc1ccccc1-n1nc2c(c1NC(=O)c1cccs1)CS(=O)(=O)C2	-4	-7	5	-16	2.4	7%	-1.4	5	15	1.1
CCOC(=O)c1c(NS(C)(=O)=O)sc2c1CCC(C)C2 (stereo not given)	-2	0	-4	.	-15	6%	-1.2	.	.	.
Brc1ccc(-n2cnc(-c3ccccc3)c2)cc1	-4	6	-1	-4.5	?	-18%	-5.4	-15*	6.9*	-2.9*
N#CCCn1cc(/C=N/NC(N)=S)c(-c2ccc(-c3ccccc3)cc2)n1	63*	16	-8	9.0	-1.0	-5%	-0.5	-39	-39	-7.0
CC(C)(C)CC(=O)NCCCN1CCOCC1	-3	7	17	0.3	-0.6	6%	-0.8	14	11	0.2
CC(=O)c1ccc(NC(=O)c2cccc(NC(=O)c3ccccc3)c2)cc1	-6	.	-5	-0.3	-1.4	-14%	-1.4	5	4	-1.3
COc1ccc(C(=O)NCCCCCC(=O)O)cc1OC	-11	-5	3	.	-1.8	6%	-0.1	.	.	.
CCc1ccc(NS(=O)(=O)c2cc(OC)ccc2OC)cc1	-15	-1	-41	-56	-1.8	22%	0.6	-7	-10	4.2
Cc1ccnc(NC(=O)CCc2c[nH]c3ccccc23)c1	13	.	5	3.9	3.5	.	-0.3	-1	0	1.8

Following part:
SMILES	T cruzi inh	Beta apoptosis	Calb FLC	MLL AF4-AF9 inh	RanGTP-Impb inh	Vif A3G	A1 inh	Ecoli rRNA inh	Ecoli rRNA inh OD600	Ecoli rRNA inh RFP
O=S(NCc1ccco1)C12CC3CC(CC(C3)C1)C2 (stereo not given)	-27	0	8	-1.4	?	?	0.1	3	2	3.9
O=C(CNC(=S)N(Cc1ccccc1)Cc1cccnc1)N1CCOCC1	19	-1	6	1.0	3.8	1%	-0.3	21	18	2.5
Cc1ccc(S(=O)(=O)N2CCOCC2)cc1C(=O)Nc1nc(-c2ccccn2)cs1	.	76*	.	1.0	.	3%	-2.3	-21	-52	7.8
O=C(NCc1ccccc1)c1sc(=S)n2c1[nH]c(=O)c1ccccc12	-14	-3	87*	.	-1.4	26%	1.7	.	.	.
Cc1cccc(C)c1NC(=S)NCCCN1CCCC1=O	-8	-2	1	.	2.1	-4%	-0.9	.	.	.
Cc1cccc(/N=C2/NC(=O)C(Cc3ccccc3)S2)n1 (stereo not given)	8	0	-11	3.0	2.7	2%	0.7	7	0	-0.6
CC(=O)NS(=O)(=O)c1ccc(NC(=O)CSc2ccc(Cl)cc2)cc1	4	-5	23	0.8	-3.6	1%	1.1	-2	1	-2.4
COCCn1c(SCC(=O)NCc2ccc(F)cc2)nc2ccccc21	6	.	10	-1.1	-4.8	.	0.5	1	-6	0.0
Cc1noc(NS(=O)(=O)c2ccc(NC(=O)c3ccc(F)cc3)cc2)c1C	.	-6	.	-0.3	.	-7%	1.4	-6	-2	-1.0
CCOC(=O)c1[nH]c2c(c1C)C(=O)CC(c1ccc(F)cc1)C2 (stereo not given)	-11	37	4	-0.5	1.5	1%	0.3	17	14	-2.4
CCCNC(=O)c1ccccc1NC(=O)CSCc1ccc(OC)cc1	0	0	-11	.	2.6	20%	0.5	.	.	.
C=CCNc1nc(Nc2cc(Cl)ccc2OC)nc(OC)n1	-4	7	8	-2.1	0.8	.	-0.2	9	15	13
Cc1ccc(C2C(C#N)=C(N)Oc3n[nH]c(-c4ccccc4)c32)o1 (stereo not given)	-23	2	10	.	-1.5	13%	0.9	.	.	.
